Compound activity from PubChem BioAssay.
TRPML1 ag: activates the human TRPML1 channel; AID 624414; Q9GZU1; actives 0.12% (n = 410,000); TRPML1-expressing cells, Ca2+ dye fluorescence, FDSS; host cell line not named in the record; reference of the full effect not given here; activation, % (no concentration beside the values); in the data active = activation above about 50%; inconclusive = about 30% to 50%; inactive = below about 30%; note: 0% is about no effect; the text of the record puts the active cut at 80%
Target sequence (Q9GZU1 whole entry, looked up): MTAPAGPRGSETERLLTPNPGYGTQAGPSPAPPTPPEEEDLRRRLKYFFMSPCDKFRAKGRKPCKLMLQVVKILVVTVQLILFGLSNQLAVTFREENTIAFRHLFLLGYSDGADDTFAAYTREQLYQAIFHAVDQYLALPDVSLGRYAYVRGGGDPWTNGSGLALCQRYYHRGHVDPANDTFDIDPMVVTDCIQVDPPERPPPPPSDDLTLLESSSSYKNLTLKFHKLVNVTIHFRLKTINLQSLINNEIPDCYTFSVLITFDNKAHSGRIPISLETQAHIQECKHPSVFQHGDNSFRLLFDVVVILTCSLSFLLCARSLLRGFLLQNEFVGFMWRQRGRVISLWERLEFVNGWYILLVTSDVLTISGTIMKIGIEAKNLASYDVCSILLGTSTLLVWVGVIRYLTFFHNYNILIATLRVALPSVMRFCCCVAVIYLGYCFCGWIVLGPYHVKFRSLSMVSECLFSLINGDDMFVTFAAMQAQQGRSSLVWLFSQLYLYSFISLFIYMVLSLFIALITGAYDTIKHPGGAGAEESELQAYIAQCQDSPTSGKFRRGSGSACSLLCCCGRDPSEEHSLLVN
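Kinetic FDSS Ca2+ read in Tet-induced TRPML1-DL cells (ABD Ca8 dye plus quencher, 45-90 min RT loading): baseline, then compound, then 110 s agonist window; EC80 agonist 54-4 at 4uM final added afterwards for a 110 s antagonist window.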
Six1-Eya2 blk: blocks human Six1 binding to Eya2; actives 0.56% (n = 360,000); AlphaScreen GST-Six1/His-Eya2 binding, biochemical; stronger effect = lower value; control for the full effect not named in the record; Q15475+O00167; AID 651725; activity change, % (test concentration not listed); in the data active = activity change below about -65%; inconclusive = about -30% to -65%; inactive = above about -30%; note: % is set by controls: 0 for no effect and ±100 for the full control effect; compound concentration not given in the record
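GST-Six1 + His-Eya2 (5X stock: 250/500 nM); Tris pH 8.0, 300 mM NaCl, 0.05% BSA, 0.02% Tween 20; GSH donor/Ni acceptor beads; 1 h 37 °C dark; AlphaScreen readout.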
TRPML1 inh: blocks the human TRPML1 channel; Q9GZU1; TRPML1-inducible cells, Ca2+ dye fluorescence, FDSS; stronger effect = lower value; inhibition of EC80 agonist-evoked calcium signal; activity change, negative = inhibition, % (test concentration not listed); actives 0.02% (n = 390,000); in the data active means activity change below about -50%; inconclusive means about -30% to -50%; inactive means above about -30%;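 note: stimulus is agonist 54-4 at its EC80 concentration; % is set by controls: 0 for no effect and ±100 for the full control effect; compound concentration not given in the record; the text of the record puts the active cut at -80%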
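Tet-induced TRPML1-DL cells loaded with Ca8 no-wash calcium dye were read kinetically on FDSS. Compound addition was followed by EC80 agonist 54-4 (4 uM final); inhibition was read over 110 s.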
TRPV1 potentiator: enhances activation of the human vanilloid receptor TRPV1; TRPV1-expressing cells, Fluo-8 calcium influx, capsaicin EC20 potentiation; host cell line not named in the record; control for the full effect not named in the record; actives 0.02% (n = 320,000); potentiation, % at 8.33 µM; active means potentiation above 80%; inconclusive means 30% to 80%; inactive means below 30%; note: 0% is about no effect
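Fluo-8 calcium influx in TRPV1-expressing cells, kinetic read (ex 480/em 520 nm). Compound added and read 3 min for agonist activity, followed by capsaicin at EC20 final and 2 min further read for enhancement.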
CtBP-E1A inh: blocks the CtBP interaction with E1A; AlphaScreen GST-E1A/His-CtBP binding, 1536-well; stronger effect = lower value; control for the full effect not named in the record; activity change, % (concentration not given with the values); actives 0.49% (n = 340,000); AID 651724; in the data active means activity change below about -65%; inconclusive means about -30% to -65%; inactive means above about -30%; note: % is set by controls: 0 for no effect and ±100 for the full control effect
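Steps: dispense buffer (Tris pH 8.0, NaCl 300 mM, TCEP 1 mM, BSA, Tween 20); add 5X protein mix (GST-E1A, His-CtBP, 125 nM each); pin 23 nL compound; 2 h at 37 °C, dark; add 5X beads (50 ug/mL); 1 h; read.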
D2 potentiator: potentiates the human D2 dopamine receptor allosterically. P14416. DiscoveRx D2 beta-arrestin cells, luminescence, 90 min; 100% = 57 uM dopamine signal. potentiation, % (no concentration beside the values). actives 0.23% (n = 360,000); active = potentiation of 50% or more; inconclusive = 30% to 50%; inactive = 30% or less;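 note: compound concentration not given in the record; tested on top of an EC20 dose of dopamine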
Target sequence (P14416 whole entry, looked up): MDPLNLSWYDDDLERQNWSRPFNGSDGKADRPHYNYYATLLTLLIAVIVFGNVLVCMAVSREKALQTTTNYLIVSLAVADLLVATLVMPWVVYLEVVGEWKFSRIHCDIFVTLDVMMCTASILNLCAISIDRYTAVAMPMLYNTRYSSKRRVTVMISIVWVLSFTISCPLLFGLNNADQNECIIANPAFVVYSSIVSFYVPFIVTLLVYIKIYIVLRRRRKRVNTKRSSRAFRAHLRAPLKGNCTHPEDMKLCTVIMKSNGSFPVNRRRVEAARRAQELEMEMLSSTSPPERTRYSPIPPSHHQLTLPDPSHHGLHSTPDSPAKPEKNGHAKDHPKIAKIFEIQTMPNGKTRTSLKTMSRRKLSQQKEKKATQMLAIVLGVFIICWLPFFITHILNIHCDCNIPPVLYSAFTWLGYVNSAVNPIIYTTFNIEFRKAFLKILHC
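PathHunter D2 cells, attached overnight at 37 deg C, received compound in DMSO plus dopamine at EC20 (50 nM final) for 90 min at 37 deg C. Beta-arrestin recruitment was read as luminescence after 1 h with detection reagent at ambient temperature.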
* = called active by the depositor; ? = inconclusive; / = no result given.

1	O=C(COc1ccccc1)Nc1ccc(-c2nnc(-c3ccco3)o2)cc1
2	COCCOC(=O)c1[nH]c2c(c1C)C(=O)CC(c1cc(OC)c(OC)c(OC)c1)C2 (configuration not stated)
3	CCCCCCCCN1C(=O)[C@H](CC(=O)NCC2CCCCC2)C[C@@]2(C(=O)OC)CCCCC=C12
4	O=C1CC(NS(=O)(=O)c2cccnc2)CN1c1ccccc1 (configuration not stated)
5	COc1ccc(N2CCN(C(c3ccccc3OC)c3nnnn3Cc3ccco3)CC2)cc1 (configuration not stated)
6	COc1ccccc1N1CC(C(=O)OCc2nc(N)nc(Nc3ccccc3)n2)CC1=O (configuration not stated)
7	CC(C)(C)NC(=O)COc1ccc2oc3c(c2c1)CCCC3
8	C#CCOCCOCCOCCNc1nc(N2CCN(C(=O)CCCCCCCCCCNC(=O)[C@H](CO)n3cc(CCCSC)nn3)CC2)nc(N2CCN(C(=O)CCCCCCCCCCNC(=O)[C@H](CCCCN)n3cc(CCO)nn3)CC2)n1

Screen / compound no.	1	2	3	4	5	6	7	8
TRPML1 ag	-0.5	-0.6	-0.3	0.5	0.2	-1.0	0.3	-0.8
Six1-Eya2 blk	3	-10	6	3	?	0	1	-9
TRPML1 inh	-5	19	/	6	-9	17	-3	-20
TRPV1 potentiator	-4	-3	/	?	-13	-38	6	/
CtBP-E1A inh	7	-2	7	-1	-29	/	3	-9
D2 potentiator	5	-1	/	-22	-4	3	-4	-36

9	O=C(CN(Cc1ccc(Br)cc1)S(=O)(=O)c1ccccc1)NCc1ccccn1
10	Cn1c(Cc2cccc3ccccc23)nnc1SCc1ccc([N+](=O)[O-])cc1
11	Brc1cc(/C=N/n2cnnc2)oc1Br
12	O=C(/C=C/c1ccc(Cl)cc1)NCCc1ccccc1
13	C[C@H](CO)N1C[C@H](C)[C@@H](CN(C)C(=O)Nc2ccccc2)Oc2ccc(NC(=O)Cc3ccccc3)cc2C1=O
14	CCOc1ccc(-c2noc(=O)[nH]2)cc1
15	O=C(N/N=C/c1ccc(Cl)cc1)C1CC12CCC2 (configuration not stated)
16	CCN(CC)S(=O)(=O)c1ccc(OC)c(NC(=O)C(C)Oc2ccc3c(C)cc(=O)oc3c2)c1 (configuration not stated)

Screen / compound no.	9	10	11	12	13	14	15	16
TRPML1 ag	-0.2	0.3	0.4	-0.8	-0.9	-0.5	1.5	0.5
Six1-Eya2 blk	0	-17	0	10	-8	2	-1	-3
TRPML1 inh	1	4	5	6	2	-6	-2	-10
TRPV1 potentiator	21	-15	1	-15	/	-2	17	-1
CtBP-E1A inh	-4	-6	/	10	-8	3	-6	-4
D2 potentiator	-8	1	-5	-7	2	5	-1	2

17	O=C(NCc1ccc2c(c1)OCO2)C1(S(=O)(=O)c2ccccc2)CC1
18	CN1C(=O)[C@H]2[C@@H](c3ccc(F)cc3)N3C(=O)c4ccccc4NC(=O)[C@@]3(C)[C@H]2C1=O
19	Cc1cc(C)c(OCCCCN2CCNCC2)c(C)c1
20	CNC(=O)C(=O)NCC1OCCN1S(=O)(=O)c1ccc([N+](=O)[O-])cc1 (configuration not stated)
21	C[C@]1(CC/C(=C/CO)CO)[C@H](CO)CC[C@@]23COC(=O)C2=CCC[C@@H]31
22	Nc1nnc(Sc2ncccc2[N+](=O)[O-])s1
23	C(CCCN1CCCCC1)CCN1CCCCC1
24	Cc1ccc(Nc2cc(-n3nc(C)cc3C)ncn2)c(C)c1

Screen / compound no.	17	18	19	20	21	22	23	24
TRPML1 ag	-0.6	0.3	-0.6	3.2	-0.5	0.7	0.2	1.9
Six1-Eya2 blk	20	10	3	2	0	-16	-6	19
TRPML1 inh	-1	20	29	-5	0	1	-2	-14
TRPV1 potentiator	-4	6	-6	-18	-7	-4	/	-16
CtBP-E1A inh	32	/	6	17	-2	-13	-9	1
D2 potentiator	-5	-16	-2	16	-6	16	-30	-1

25	COc1ccc(S(=O)(=O)N2CCN(Cc3cccc(Cl)c3)CC2)cc1
26	Fc1ccccc1OCCn1c(=S)[nH]c2ccccc21
27	COc1ccc(N=Nc2c(-c3ccc(OC)cc3)[nH]oc2=O)cc1
28	CCOC(=O)CCC(=O)N(CCN(C(=O)CCC(=O)OCC)c1ccccc1)c1ccccc1
29	O=C(O)c1ccc2c(c1)NC(=O)C(N1CCCC1)S2 (configuration not stated)
30	CN1CCN(c2ccc([N+](=O)[O-])cc2NC(=O)c2ccccc2Cl)CC1
31	COc1cccc(C(=O)NCC2CCN(c3ccc(S(=O)(=O)N4CCOCC4)cc3)CC2)c1
32	COc1cccc(NC(=O)CN(C)S(=O)(=O)/C=C/c2ccccc2)c1

Screen / compound no.	25	26	27	28	29	30	31	32
TRPML1 ag	1.3	1.7	-0.5	1.2	1.3	-0.2	-0.3	1.1
Six1-Eya2 blk	0	-23	0	1	-1	-9	-1	2
TRPML1 inh	2	22	-3	-18	45	12	2	9
TRPV1 potentiator	-13	-2	16	-5	-11	-20	-1	15
CtBP-E1A inh	-3	-9	-4	3	-7	-12	-2	0
D2 potentiator	-14	1	-5	-10	-9	-2	-11	-2

33	CCC(CO)Oc1cc(NC(=O)c2ccc([N+](=O)[O-])cc2)c2ncn(C(C)C)c2c1 (configuration not stated)
34	CCCCN(CC)CCNC(=O)CCNC(=O)Cn1ccc2ccccc2c1=O
35	CCN1CCN(c2cc3nc(C)n(Cc4ccccc4)c(=O)c3cc2NC(=O)c2ccccc2F)CC1
36	CC(C)CCn1nnnc1C(c1ccccc1F)N1CCC(C(N)=O)CC1 (configuration not stated)
37	COc1ccc(C2NN=C(c3c[nH]c4ccccc34)C2O)cc1 (configuration not stated)
38	Cc1ccc(C)c(C(C)NC(=S)NCc2ccc(F)cc2)c1 (configuration not stated)
39	CN1CCN(CC(=O)Nc2ccc(Oc3ccccc3)cc2)CC1
40	CCC(C)Oc1cccc(C(=O)Nc2ccccc2N2CCOCC2)c1 (configuration not stated)

Screen / compound no.	33	34	35	36	37	38	39	40
TRPML1 ag	-0.6	-0.7	1.1	1.4	-0.1	3.5	0.9	0.2
Six1-Eya2 blk	-3	2	-3	0	-1	1	0	2
TRPML1 inh	5	10	40	4	-7	15	-1	13
TRPV1 potentiator	/	-1	4	0	?	20	-2	-20
CtBP-E1A inh	4	5	-4	5	/	0	-7	9
D2 potentiator	1	-7	-5	-6	19	-6	-7	-1

41	Cc1cc(NC2CCCCC2)nc(NCc2ccccc2)n1
42	O=C(NCc1cccc(Cl)c1)C1Cc2c(-c3ccccc3Oc3ccccc3)ccnc2O1 (configuration not stated)
43	CCc1ccc(C(=O)CN(C#N)c2nc(C)cc(C)n2)cc1
44	COc1ccccc1C(CNc1nc(C(F)(F)F)nc2ccccc12)N(C)C (configuration not stated)
45	O=C(NCCc1ccc(F)cc1)c1cc([N+](=O)[O-])ccc1N1CCOCC1
46	O=C(CCC1CCCC1)NCc1cccs1
47	CC(C)CCNC(=O)C1CC(c2ccc(C(F)(F)F)cc2)=NO1 (configuration not stated)
48	CC1CC(C)(C)NC(=S)N1CCCC(=O)NCCc1ccc(Cl)cc1 (configuration not stated)

Screen / compound no.	41	42	43	44	45	46	47	48
TRPML1 ag	0.7	-0.1	0.5	1.2	-0.2	-0.6	0.6	-0.1
Six1-Eya2 blk	4	-2	-4	-8	1	10	2	-1
TRPML1 inh	21	/	16	27	5	-9	-12	9
TRPV1 potentiator	3	/	-5	1	4	-15	5	3
CtBP-E1A inh	-8	-2	0	0	4	-4	/	5
D2 potentiator	-7	-1	-29	-10	-24	6	-6	-8

4 of the compounds above, as labelled records:
(7) CC(C)(C)NC(=O)COc1ccc2oc3c(c2c1)CCCC3
  TRPML1 ag: 0.3 | Six1-Eya2 blk: 1 | TRPML1 inh: -3 | TRPV1 potentiator: 6 | CtBP-E1A inh: 3 | D2 potentiator: -4
(38) Cc1ccc(C)c(C(C)NC(=S)NCc2ccc(F)cc2)c1 (configuration not stated)
  TRPML1 ag: 3.5 | Six1-Eya2 blk: 1 | TRPML1 inh: 15 | TRPV1 potentiator: 20 | CtBP-E1A inh: 0 | D2 potentiator: -6
(35) CCN1CCN(c2cc3nc(C)n(Cc4ccccc4)c(=O)c3cc2NC(=O)c2ccccc2F)CC1
  TRPML1 ag: 1.1 | Six1-Eya2 blk: -3 | TRPML1 inh: 40 | TRPV1 potentiator: 4 | CtBP-E1A inh: -4 | D2 potentiator: -5
(42) O=C(NCc1cccc(Cl)c1)C1Cc2c(-c3ccccc3Oc3ccccc3)ccnc2O1 (configuration not stated)
  TRPML1 ag: -0.1 | Six1-Eya2 blk: -2 | TRPML1 inh: / | TRPV1 potentiator: / | CtBP-E1A inh: -2 | D2 potentiator: -1

Arranged by SMILES length (high to low): part of the list above
44	COc1ccccc1C(CNc1nc(C(F)(F)F)nc2ccccc12)N(C)C (configuration not stated)
48	CC1CC(C)(C)NC(=S)N1CCCC(=O)NCCc1ccc(Cl)cc1 (configuration not stated)
43	CCc1ccc(C(=O)CN(C#N)c2nc(C)cc(C)n2)cc1

Screen / compound no.	44	48	43
TRPML1 ag	1.2	-0.1	0.5
Six1-Eya2 blk	-8	-1	-4
TRPML1 inh	27	9	16
TRPV1 potentiator	1	3	-5
CtBP-E1A inh	0	5	0
D2 potentiator	-10	-8	-29

Next section:
49	CCN(CC(=O)Nc1ccc(OC)cc1)C(=O)c1cc([N+](=O)[O-])ccc1N1CCOCC1
50	OCCC1CN(Cc2nc3ccccc3s2)CCN1C1CCCC1 (configuration not stated)
51	CCOc1ccccc1N1CCN(S(=O)(=O)c2cccs2)CC1
52	CC1(C)CC(NC(=O)C(F)(F)F)CC(C)(C)N1OC(=O)c1ccco1
53	CC(NC(=O)c1ccncc1)c1ccc(Br)cc1 (configuration not stated)
54	CCOc1cc(C(=O)NCc2ccc(C)cc2)ccc1OCC(=O)N1CCOCC1
55	CN(C)c1ccc(/C=N/NC(=O)CNC(=O)c2ccc3c(c2)OCCO3)cc1
56	CN(C)CCN(C(=O)CN1C(=O)c2ccccc2C1=O)c1nc2cc3c(cc2s1)OCO3

Screen / compound no.	49	50	51	52	53	54	55	56
TRPML1 ag	0.2	0.0	-0.6	0.5	1.0	0.1	2.5	0.6
Six1-Eya2 blk	-7	-2	-1	4	12	-4	-5	-13
TRPML1 inh	2	27	2	-11	-3	15	-19	17
TRPV1 potentiator	6	-5	-11	10	/	-3	4	-1
CtBP-E1A inh	6	-11	3	-3	-11	1	-12	4
D2 potentiator	-29	-20	8	-6	-5	-3	-6	-19

57	CN(CC(=O)NC1CCCCC1)S(=O)(=O)c1cccc2cccnc12
58	O=C1c2ccccc2S(=O)(=O)c2cc(N3CCOCC3)ccc21
59	Cc1ccsc1/C=N/NC(=O)c1nnn(-c2nonc2N)c1CSc1ccccc1
60	O=C(OCCN1C(=O)c2ccccc2C1=O)c1cccc(OC(F)F)c1
61	CCc1ccc(NS(=O)(=O)c2cc(OC)ccc2OC)cc1

Screen / compound no.	57	58	59	60	61
TRPML1 ag	-0.3	4.6	1.6	3.5	2.3
Six1-Eya2 blk	-4	2	1	18	6
TRPML1 inh	2	4	-2	-4	-10
TRPV1 potentiator	-1	/	0	8	2
CtBP-E1A inh	0	2	1	14	12
D2 potentiator	-11	2	2	-11	-2
